# Compound activity: PubChem, National Center for Advancing Translational Sciences (NCATS)
# GLA inh pH 4.5: blocks human alpha-galactosidase A at pH 4.5; P06280; purified enzyme, 4-MU-alpha-Gal fluorescence, pH 4.5; activity change, negative = inhibition, % at 105 µM; 230,000 tested, under 10 active; AID 1467; inconclusive = small, poorly fitted or top-dose-only inhibition, or a rising curve; inactive = flat fitted curve, though single readings scatter; no compound was filed as active;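 further: 0% = full activity with enzyme and -100% = basal without enzyme; dose as in the result columns while the protocol names 77 µM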
# Rango-impB inh: Rango-importin beta binding inhibition; Q14974; Rango CFP/YFP FRET sensor + importin beta, 45 min; Potency, µM (doses to about 92.2 µM), for the others: at the top dose inhibition of complex formation; 340,000 compounds, 0.031% hits; AID 540263; active = rising FRET ratio curve, often small or poorly fitted; inconclusive = mostly compound fluorescence or quenching in the first reads; inactive = flat curves in all reads;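 further: potency means the concentration at half of the fitted maximal effect; 0% = DMSO wells and 100% = buffer wells lacking importin beta; nearly all actives have a fitted effect of over 15% in size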
# Target sequence (Q14974 whole entry, looked up): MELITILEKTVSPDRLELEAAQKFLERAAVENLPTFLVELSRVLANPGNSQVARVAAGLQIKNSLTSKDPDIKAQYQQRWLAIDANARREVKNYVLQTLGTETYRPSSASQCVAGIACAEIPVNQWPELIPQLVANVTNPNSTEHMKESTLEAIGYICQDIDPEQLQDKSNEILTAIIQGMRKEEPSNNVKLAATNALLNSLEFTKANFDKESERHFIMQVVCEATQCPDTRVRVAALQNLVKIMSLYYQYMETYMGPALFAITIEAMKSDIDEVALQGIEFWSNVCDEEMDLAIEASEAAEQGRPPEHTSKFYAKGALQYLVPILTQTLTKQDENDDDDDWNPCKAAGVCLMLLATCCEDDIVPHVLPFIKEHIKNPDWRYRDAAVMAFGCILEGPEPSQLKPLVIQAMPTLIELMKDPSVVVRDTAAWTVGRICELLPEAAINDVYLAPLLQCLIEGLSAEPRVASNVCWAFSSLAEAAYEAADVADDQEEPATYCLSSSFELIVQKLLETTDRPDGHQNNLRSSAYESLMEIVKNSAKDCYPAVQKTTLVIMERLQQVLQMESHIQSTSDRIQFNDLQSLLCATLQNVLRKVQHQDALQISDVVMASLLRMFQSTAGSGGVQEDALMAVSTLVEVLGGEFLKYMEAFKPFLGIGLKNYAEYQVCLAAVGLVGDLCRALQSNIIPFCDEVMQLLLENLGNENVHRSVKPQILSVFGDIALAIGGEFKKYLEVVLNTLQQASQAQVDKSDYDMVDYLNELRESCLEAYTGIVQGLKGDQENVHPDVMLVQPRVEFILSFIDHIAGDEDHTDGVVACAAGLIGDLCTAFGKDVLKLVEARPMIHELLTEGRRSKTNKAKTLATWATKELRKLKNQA
#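 Inhibition scored from the CFP 486 nm/YFP 530 nm FRET ratio 45 min after adding 0.125 microM importin beta to 50 nM Rango biosensor preincubated 5 min with compound (room temperature, PBS with DTT, Tween-20, BSA). No-importin wells as positive control.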
# miR-21 FLuc: raises the signal of a miR-21 reporter. AID 2288. Potency, µM (top dose mostly 38.3 µM), inactives show at the top dose reporter change, positive = more light. HeLa miR-21 FLuc reporter, luciferase, 48 h. 340,000 tested, under 10 active; active = well fitted rising curve with a large enough effect; inconclusive = small, poorly fitted or top-dose-only effect; inactive = no such curve, though single readings can be large or run the other way;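 further: % of control where 0% means no effect; miR-21 action dims this reporter so a rising signal means less miR-21 action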
#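 Luminescence from a firefly luciferase reporter carrying a miR-21 binding site downstream, stably expressed under a CMV promoter in HeLa cells that make miR-21 endogenously, reports miRNA modulation after 48 h compound exposure up to approximately 40uM final.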
# Rango release inh: prevents RanGTP from dissociating the Rango-importin beta complex. O95149+P62826. Biochemical FRET Rango-importin beta, RanGTP-induced dissociation. Potency, µM (highest dose often 46.1 µM), for inactives: at the top dose activity change, negative = inhibition. 340,000 compounds, 0.071% hits; active means falling FRET ratio curve, often poorly fitted, with flat reads before Ran was added; inconclusive means other falling curves, or compound fluorescence or quenching; inactive means flat or rising ratio curve;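 further: potency means the concentration at half of the fitted maximal effect; % of control where 0% means no effect; nearly all actives have a fitted effect of over 45% in size; -100% = wells without RanGTP and RCC1; the record marks most hits as doubtful in a second field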
#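 Quantitative HTS using a FRET biosensor: 0.1 uM Rango, 0.25 uM importin beta, 0.6 uM Ran, 2 mM GTP, 0.2 uM RCC1 final, PBS with DTT, Tween-20 and BSA. Post-read taken 45 min after Ran addition.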
# * hit, by the source's call; ? = inconclusive; / = no result given; [ ] = remark or other dose. This is a subset; the hit share may differ from the screen's.
nr	Structure	GLA inh pH 4.5	Rango-impB inh
1	Cc1cccc(C)c1NC(=O)N1CCCC1C(=O)Nc1ccc(-n2cnnn2)cc1 (stereo unspecified)	3	2.5%
2	COc1ccc(N(C(C)=O)S(=O)(=O)c2cccs2)cc1	-3	0.1%
3	COCC(=O)Nc1cc(C)cn(Cc2ccccc2Cl)c1=O	/	-1.8%
4	CCOc1ccc(NC(=O)CCN2CCN(S(=O)(=O)c3ccc(OC)cc3)CC2)cc1	2	-3.4%
5	O=C1CN=C(Nc2ccccc2Cl)N1c1ccccc1	-3	-2.4%
6	Cc1ccc(C(=O)N2CCN(c3cnn(C)c(=O)c3Cl)CC2)cc1	-1	6.9%
7	CCC1S/C(=C(\C#N)C(N)=O)N(c2ccc(F)cc2)C1=O (stereo unspecified)	5	-5.7%
8	CCOc1ccc(NC(=O)CSc2ccc(-c3ccco3)nn2)cc1	/	2.6%
9	Fc1ccc(N2N=C(c3cccs3)CC2c2ccco2)c(F)c1 (stereo unspecified)	?	?
10	COc1cc(C2OCC3C(c4ccc(OC5OC(CO)C(O)C(O)C5O)c(OC)c4)OCC23)ccc1O (stereo unspecified)	-3	-2.5%
11	CC(=O)Oc1ccccc1C(=O)C=Cc1cccc([N+](=O)[O-])c1	/	4.7%
12	CCC(=O)N(Cc1ccc(C)cc1)Cc1cc2cc3c(cc2[nH]c1=O)OCO3	3	-3.2%

nr	miR-21 FLuc	Rango release inh
1	-1%	5%
2	-15%	-1%
3	-17%	1%
4	8%	1%
5	0%	0%
6	2%	4%
7	-2%	12%
8	-1%	2%
9	-12%	-23%
10	-22%	-17%
11	/	-18%
12	2%	-1%

# Further compounds
nr	Structure	GLA inh pH 4.5	Rango-impB inh
13	CC(C)(C)CC(C)(C)NCC(O)COCCOc1ccc(Br)cc1 (stereo unspecified)	5	0.6%
14	O=C(CSc1ccc(Cl)cc1)NCc1ccco1	6	3.5%
15	O=C(NCCc1ccccc1)C1CCN(S(=O)(=O)c2cccs2)CC1	-7	-1.2%
16	COc1ccc(CCNC(=O)Cn2c(=O)n(Cc3ccco3)c(=O)c3ccc(Cl)cc32)cc1OC	1	?
17	O=C(Nc1nc(-c2cccc3ccccc23)cs1)c1ccc2c(c1)S(=O)(=O)c1ccccc1C2=O	1	-3.1%
18	CC(=C1C(=O)c2ccccc2C1=O)N1CCN(C/C=C/c2ccccc2)CC1	4	0.1%
19	Cc1ccc(/C=N/Nc2nnc(Cc3ccccc3)c(=O)[nH]2)o1	-1	-2.0%
20	COc1cccc(NC(=O)Cn2c(=O)n(CCC(=O)NCc3ccco3)c(=O)c3ccccc32)c1	7	0.8%
21	Cn1c(N)c(C(=O)COC(=O)Cc2ccc(Br)cc2)c(=O)n(C)c1=O	/	?
22	COc1ccc(NC(=O)N(CCCN(C)C)Cc2cc3cc(OC)ccc3[nH]c2=O)cc1	1	?
23	O=S(=O)(NC1CCCCCC1)c1ccc(Br)s1	-9	-0.3%
24	COc1ccc(CNC(=O)C(c2ccco2)N(C(=O)c2ccccn2)c2ccccc2)cc1 (stereo unspecified)	-3	-1.6%

nr	miR-21 FLuc	Rango release inh
13	19%	-12%
14	-17%	0%
15	-12%	-2%
16	14%	-9%
17	-33%	-3%
18	-8%	4%
19	0%	22%
20	-1%	-8%
21	/	10%
22	-10%	-1%
23	-1%	-15%
24	-42%	6%

# Following part
nr	Structure	GLA inh pH 4.5	Rango-impB inh
25	Cc1c(CCC(=O)O)c(=O)oc2cc3occ(-c4ccc(Br)cc4)c3cc12	/	-2.2%
26	O=C(NCc1ccccn1)C1CCCCC1	-2[21.1 µM]	2.9%
27	COC(=O)CCc1nc2ccccc2nc1OC	2	2.9%
28	CC(=O)Nc1ccc2nc(NS(=O)(=O)c3ccc(C)cc3)sc2c1	4	-2.5%
29	CCn1c(Cl)c(C=O)s/c1=N\S(=O)(=O)c1ccccc1	3	1.2%
30	COC(=O)Cc1ccc2c3ccccc3n(C)c2c1	0	1.1%
31	COc1cc(NC(=O)Cc2nn(C)c(=O)c3ccccc23)cc(OC)c1OC	4	-0.5%
32	CCO[C@@H]1OC(C(=O)N2CCN(Cc3ccc4c(c3)OCO4)CC2)=C[C@H](C2CC2)[C@H]1CCCO	-4	-2.5%
33	CCOc1ccc2nc(NCCNC(=S)NCCCN(C)C)c(C#N)cc2c1	-5	?
34	S=c1[nH]nc(COc2ccccc2)n1C1CCCCC1	1	0.4%
35	COC(=O)[C@]1(Cc2ccccc2)N[C@H](CN(C)C(=O)C2CCCCC2)[C@@H]2C(=O)N(C)C(=O)[C@@H]21	/	1.0%
36	Cc1nc2nc(CNC(=O)OC(C)(C)C)nn2c(C)c1CCC(=O)Nc1ccc2c(c1)OCO2	/	-3.5%

nr	miR-21 FLuc	Rango release inh
25	-26%	-8%
26	-1%	-12%
27	3%	18%
28	-5%	10%
29	?	6%
30	-30%	-3%
31	-23%	0%
32	0%	-17%
33	-14%	?
34	1%	7%
35	/	11%
36	-12%	-7%

# Further results.
nr	Structure	GLA inh pH 4.5	Rango-impB inh
37	O=C(CSc1ccc(Cl)cc1)Nc1ccc(N2CCN(C(=O)c3ccc(Cl)cc3)CC2)cc1	12	-0.8%
38	COc1ccc(S(=O)(=O)Nc2c(C(=O)O)[nH]c3ccccc23)cc1OC	2	-4.3%
39	O=C(c1ccccc1)c1ccccc1C(=O)N1CCN(C(=O)c2ccccc2)CC1	5	3.5%
40	O=C(NCCc1ccccc1)c1c(O)c2cccc3c2n(c1=O)CC3	-3	-5.7%
41	Cc1ccc(-c2nnc(SCC(=O)Nc3ccc(N4CCOCC4)cc3)o2)cc1	10	-4.6%
42	COCC1CCCCN1C(=O)C1CCN(c2nc(-c3ccccc3)nc3c2CCC3)CC1 (stereo unspecified)	/	3.5%
43	CCOC(=O)c1ccc(N2Cc3ccccc3C2=N)cc1	4	4.4%
44	O=C(NNC(=S)NC(=O)c1cccs1)c1ccc(NC(=O)c2ccccc2)cc1	-4	-9.2%
45	CCn1cc(C(=O)N2CCN(c3ccccn3)CC2)c(=O)c2cc(S(=O)(=O)N(C)C3CCCCC3)ccc21	-19	2.1%
46	CCCCN1CCCCC1C(=O)Nc1c(C)cc(C)cc1C (stereo unspecified)	-2	2.9%
47	COc1ccccc1NS(=O)(=O)c1ccc(NN=C2CCCC2)c([N+](=O)[O-])c1	-15	-2.5%
48	O=C(N/N=C/C(Br)=C/c1ccccc1)c1cc(-c2ccco2)[nH]n1	13	-3.2%

nr	miR-21 FLuc	Rango release inh
37	0%	-16%
38	-29%	-14%
39	22%	-14%
40	-3%	-4%
41	5%	-7%
42	3%	4%
43	-38%	-6%
44	10%	0%
45	4%	-13%
46	-5%	11%
47	2%	14%
48	9%	-9%

# More structures follow.
nr	Structure	GLA inh pH 4.5	Rango-impB inh
49	CC(C)OC(=O)c1nnc(Cc2ccc(Cl)cc2)o1	0	-3.1%
50	Cc1oc(-c2ccc(Cl)cc2)nc1CN1CCCC(C(=O)NCc2ccco2)C1 (stereo unspecified)	-1	-1.3%
51	O=C(CN1CCNCC1)NCCSc1ccc(Cl)cc1	-2	6.7%
52	O=C(CN1CCN(C(=O)C2CC2)CC1)Nc1ccc(Cl)cc1F	/	0.6%
53	Cc1cc(O)c(C(=O)c2ccccc2C(=O)O)cc1C	-5	0.7%
54	COc1cccc(C2(O)CCN(C(=O)C(C)C)CC2)c1	-6	-1.7%
55	CCC(=O)C1CCCN(C(=O)CCc2nnc(C3(c4ccc(Cl)cc4)CCC3)o2)C1 (stereo unspecified)	/	0.2%
56	Cc1c(C(=O)N2CCN(c3ccc(F)cc3)CC2)sc2ncnc(N3CCN(c4ccccn4)CC3)c12	/	-3.7%
57	Cc1ccc(O)c(-c2cc(-c3ccccc3[N+](=O)[O-])[nH]n2)c1	-25	4.3%
58	CCSc1nnc2nc(C)cc(C)n12	0	0.6%
59	Brc1cccc(OCCCNC2CCCC2)c1	/	7.5%
60	Cc1cccc(N2CCN(CC(=O)N(C3CCCC3)C3CCS(=O)(=O)C3)CC2)c1C (stereo unspecified)	/	1.2%

nr	miR-21 FLuc	Rango release inh
49	-1%	-12%
50	22%	3%
51	2%	23%
52	/	-14%
53	-3%	-6%
54	1%	44%
55	-34%	-7%
56	?	14%
57	-43%	-27%
58	-7%	-4%
59	2%	7%
60	/	2%

# Following part
nr	Structure	GLA inh pH 4.5	Rango-impB inh
61	COc1cc(OC)c(C2=NOC(C(=O)Nc3c(C)nn(CC(=O)N4CCCC4)c3C)C2)cc1Cl (stereo unspecified)	4	-2.4%
62	COc1ccc(C2CC(c3ccccc3)=NN2C(=O)CCC(=O)O)cc1 (stereo unspecified)	/	?
63	CCOc1ccc(/C=C/C(=O)Nc2cccc(C(C)=O)c2)cc1	-1	-1.3%
64	CCC(=O)Nc1nnc(SCC(=O)NCC2CCCO2)s1 (stereo unspecified)	/	0.3%
65	CCC(=O)OCC(=O)Nc1ccc(OC)cc1[N+](=O)[O-]	0	-1.7%
66	CC(C)CN1C(=O)C(=O)N(CC(=O)N(C)CC(=O)Nc2ccc(F)cc2)C1=O	/	3.6%
67	Cc1cccc(Nc2nc(C)cc(C)c2C#N)c1	/	0.2%
68	CC1(c2ccccc2Br)NC(=O)N(CC(=O)N2CCc3ccccc3C2)C1=O (stereo unspecified)	/	0.2%
69	c1ccc(-c2ccccc2OCCOCCN2CCc3ccccc3C2)cc1	-15	-1.6%
70	O=C(Cc1c2ccccc2nc2ccccc12)c1ccccc1	5	-1.2%
71	O=c1[nH]nc(CNc2ccc(Cl)cc2Cl)c2ccccc12	0	-0.9%
72	O=C(CNC(=O)c1ccccc1Br)N/N=C/c1cccs1	/	0.6%
73	COc1ccccc1CNC(=O)c1cccc(S(=O)(=O)N2CCN(c3ccc(F)cc3)CC2)c1	/	0.4%

nr	miR-21 FLuc	Rango release inh
61	-9%	-5%
62	-7%	-7%
63	-6%	-6%
64	/	-15%
65	-2%	15%
66	/	6%
67	-1%	1%
68	/	1%
69	4%	-4%
70	-8%	-15%
71	-19%	-25%
72	-3%	6%
73	/	-10%
